rRNA inh HTS: reduced GFP signal of wild-type E. coli, primary screen, bacterial rRNA inhibitor project, GFP/RFP fluorescence, OD600, single point; E. coli WT GFP vs humanized-ribosome RFP mutants, 24 h; stronger effect = lower value; DMSO median 0, no signal -100; actives 1.6% (n = 350,000); GFP signal change (wild-type ribosome), % (test concentration not listed);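 active means significant combined selectivity score with lowered wild-type GFP, culture density cut under 30%, mutant RFP and density less affected; inactive means any of these conditions unmet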; further: one replicate is shown; some compounds called inactive have numbers as strong as hits
FGF22 binding: binders of human FGF22 protein, primary screen, FGF22 synaptogenesis inhibitor project, biophysical, thermal shift, single point | recombinant FGF22 thermal shift, SYPRO orange fluorescence; percent of sucrose octasulfate shift, DMSO zero | calls only at 9.99 µM | actives 1.5% (n = 340,000) | AID 651658, 2012;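 active means melting point raised past a set limit in the mean and every replicate; three in four hits are not shown here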
Target sequence (Q9HCT0 whole entry, looked up): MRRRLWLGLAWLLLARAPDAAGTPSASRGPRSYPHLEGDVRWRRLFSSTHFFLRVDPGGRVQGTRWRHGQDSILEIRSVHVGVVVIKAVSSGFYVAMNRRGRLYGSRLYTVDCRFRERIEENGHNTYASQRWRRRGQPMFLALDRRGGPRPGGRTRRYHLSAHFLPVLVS
rRNA inh HTS OD600: further read-out of rRNA inh HTS, marked with its call; OD600 change, %; measured here: OD600 growth;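 optical density of the mix in the first replicate; 0 = DMSO median and -100 = no signal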
rRNA inh HTS RFP: recorded beside rRNA inh HTS, whose call it bears; RFP signal change, %; measured here: RFP humanized mutant strains;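 first replicate; 0 = DMSO median and -100 = no signal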
* marks the source's active call; other numbers are inactive results; i = inactive; . = not tested or not shown. These rows are one share of the data (hit frequency here may not be typical).

SMILES | rRNA inh HTS | rRNA inh HTS OD600 | rRNA inh HTS RFP | FGF22 binding
C[C@@H]1CN([C@H](C)CO)C(=O)c2cc(C#CC3(O)CCCC3)cnc2O[C@@H]1CN(C)S(=O)(=O)c1ccc(F)cc1 | 2.6 | 2.8 | -0.9 | i
CC(C)NC(=O)Nc1ccc2c(c1)C(=O)N([C@@H](C)CO)C[C@H](C)[C@@H](CN(C)Cc1ccc(C(=O)O)cc1)OCCCC[C@@H](C)O2 | 4.6 | 4.5 | -2.6 | i
C[C@@H]1CN([C@@H](C)CO)C(=O)c2cc(NC(=O)C3CCCCC3)ccc2O[C@H]1CN(C)Cc1ccc(C(=O)O)cc1 | 0.9 | 11.6 | 1.8 | i
N#C[C@@H]1[C@H](c2ccccc2)[C@@H](CO)N1C(=O)c1ccc2c(c1)OCO2 | 2.1 | 5.9 | -2.7 | i
O=C(O)[C@@H]1[C@@H](CO)[C@@H]2Cn3c(ccc(C4=CCCCC4)c3=O)[C@@H]2N1Cc1ccccc1F | 0.3 | 2.4 | -1.6 | i
Cc1ccc(S(=O)(=O)N(C)C[C@H]2Oc3ccc(NC(=O)NC4CCCCC4)cc3CC(=O)N([C@H](C)CO)C[C@H]2C)cc1 | -0.7 | -10.4 | -2.5 | i
C[C@@H]1CN([C@@H](C)CO)C(=O)Cc2cc(NS(=O)(=O)c3ccc(F)cc3)ccc2O[C@@H]1CN(C)S(=O)(=O)c1ccc(Cl)cc1 | -0.5 | -14.7 | 1.6 | i
C[C@H]1CN([C@@H](C)CO)C(=O)Cc2cc(NC(=O)Nc3ccccc3)ccc2O[C@@H]1CN(C)Cc1ccc(C(F)(F)F)cc1 | 1.1 | -1.6 | 2.1 | i
C[C@@H]1CN([C@@H](C)CO)C(=O)c2cc(C#CC3CCCCC3)cnc2O[C@@H]1CN(C)C(=O)C1CCCCC1 | -0.1 | 10.0 | -0.8 | i
Cc1noc(C)c1NC(=O)N(C)C[C@H]1OCCCC[C@H](C)Oc2ccc(NS(=O)(=O)c3cccs3)cc2C(=O)N([C@H](C)CO)C[C@@H]1C | -2.3 | 4.6 | 0.8 | i
COc1ccc(C#Cc2ccc([C@H]3[C@H]4CN(C(=O)Nc5ccccc5)CCCCN4[C@H]3CO)cc2)cc1 | -0.1 | 10.0 | 2.2 | i
CCCNC(=O)N(C)C[C@H]1Oc2ncc(-c3cccc(C#N)c3)cc2C(=O)N([C@@H](C)CO)C[C@H]1C | 5.0 | 16.9 | -3.0 | i
CCN1[C@@H]2c3ccc(C4=CCCCC4)c(=O)n3C[C@H]1[C@H](CO)[C@H]2C(=O)N1CCOCC1 | 0.7 | -1.9 | -1.3 | i
C[C@@H]1CCCCO[C@@H](CN(C)C(=O)c2ccccc2)[C@H](C)CN([C@@H](C)CO)C(=O)c2cc(NS(C)(=O)=O)ccc2O1 | -1.3 | 5.6 | -0.6 | i
C[C@H]1CN([C@@H](C)CO)C(=O)c2cc(NC(=O)CCC(F)(F)F)ccc2O[C@H]1CN(C)Cc1ccc(C(=O)Nc2ccccc2N)cc1 | 2.5 | 17.5 | 1.2 | i

Full records from above. Order of screens: rRNA inh HTS | rRNA inh HTS OD600 | rRNA inh HTS RFP | FGF22 binding
N#C[C@@H]1[C@H](c2ccccc2)[C@@H](CO)N1C(=O)c1ccc2c(c1)OCO2 is listed with 2.1 | 5.9 | -2.7 | i
COc1ccc(C#Cc2ccc([C@H]3[C@H]4CN(C(=O)Nc5ccccc5)CCCCN4[C@H]3CO)cc2)cc1 is listed with -0.1 | 10.0 | 2.2 | i
CC(C)NC(=O)Nc1ccc2c(c1)C(=O)N([C@@H](C)CO)C[C@H](C)[C@@H](CN(C)Cc1ccc(C(=O)O)cc1)OCCCC[C@@H](C)O2 is listed with 4.6 | 4.5 | -2.6 | i

Remaining list, next part
SMILES | rRNA inh HTS | rRNA inh HTS OD600 | rRNA inh HTS RFP | FGF22 binding
CO[C@@H]1CC[C@@H]2CCOc3ccc(C#N)cc3C(=O)N(C)C[C@H](C)C(=O)N(C)C[C@H]1O2 | 5.4 | 13.2 | -2.4 | i
N#C[C@@H]1N[C@H](CO)[C@H]1c1ccc(C2=CCCC2)cc1 | 4.0 | 0.7 | 7.9 | i
CO[C@@H]1CN(C)C(=O)c2cc(NS(=O)(=O)c3cn(C)cn3)ccc2OC[C@@H](C)NC[C@@H]1C | -0.8 | 2.1 | -0.8 | i
C[C@@H]1CN([C@H](C)CO)C(=O)c2ccccc2-c2ccccc2CO[C@@H]1CN(C)Cc1cccc(O)c1 | -3.6 | -6.0 | 1.5 | i
Cc1ccccc1-c1cnc2c(c1)C(=O)N([C@H](C)CO)C[C@@H](C)[C@@H](CN(C)Cc1ccncc1)O2 | -3.3 | 8.6 | -1.1 | i
CCCNC(=O)N1[C@H](CO)[C@@H](c2ccccc2)C12CN(C(=O)C1CCCCC1)C2 | 2.7 | 5.6 | 0.7 | i
COc1ccc(NC(=O)Nc2ccc3c(c2)CC(=O)N([C@H](C)CO)C[C@H](C)[C@@H](CN(C)Cc2ccc(Cl)c(Cl)c2)O3)cc1 | 3.2 | 2.7 | -1.5 | i
CO[C@H]1CN(C)C(=O)c2ccc(NS(=O)(=O)c3ccc(-c4ccccc4)cc3)cc2OC[C@@H](C)NC[C@@H]1C | -0.8 | 2.2 | 7.0 | i
CC(C)NC(=O)N(C)C[C@@H]1Oc2ccc(NS(C)(=O)=O)cc2C(=O)N([C@@H](C)CO)C[C@H]1C | 1.5 | 4.5 | 0.3 | i
C[C@H]1CN([C@@H](C)CO)S(=O)(=O)c2ccc(C#Cc3ccncc3)cc2O[C@@H]1CN(C)C | -2.4 | -5.0 | -0.2 | i
C[C@@H]1CN([C@H](C)CO)C(=O)c2cc(NC(=O)C3CCCCC3)ccc2O[C@H]1CN(C)C(=O)Nc1ccccc1 | -1.5 | 2.8 | -1.1 | i
C[C@@H]1CN([C@@H](C)CO)C(=O)Cc2cc(NS(=O)(=O)c3ccccc3)ccc2O[C@@H]1CN(C)S(=O)(=O)c1ccccc1 | -1.1 | -0.7 | -0.5 | i
C[C@H]1CN([C@@H](C)CO)C(=O)c2cccc(NC(=O)c3ccc(-c4nccs4)cc3)c2O[C@H]1CN(C)S(=O)(=O)c1ccc(Cl)cc1 | -0.7 | -4.8 | 0.2 | i
Cc1noc(C)c1NC(=O)N(C)C[C@H]1Oc2ccc(NC(=O)NC3CCCCC3)cc2CC(=O)N([C@H](C)CO)C[C@@H]1C | 1.1 | 6.0 | -1.7 | i
C[C@@H]1CN([C@H](C)CO)C(=O)c2cccc(NC(=O)Nc3ccc(F)cc3)c2O[C@H]1CN(C)Cc1ccc(C(=O)O)cc1 | 2.0 | 7.3 | 0.8 | i
CC(C)c1cn(CC[C@H]2CC[C@@H](NC(=O)c3cccc(F)c3)[C@@H](CO)O2)nn1 | -2.5 | -0.9 | 0.1 | i
CCC(=O)N1[C@H](C(=O)NCCCN(C)C)[C@@H](CO)[C@@H]2Cn3c(ccc(-c4ccccc4OC)c3=O)[C@@H]21 | 1.0 | 3.1 | -0.8 | i
CS(=O)(=O)Nc1ccc2c(c1)[C@@H]1C[C@H](CC(=O)N3CCCCC3)O[C@@H](CO)[C@@H]1O2 | 3.6 | 5.5 | -3.7 | i
C/C=C/c1ccc2c(c1)O[C@H](CN(C)C(=O)Nc1ccc(OC)cc1)[C@@H](C)CN([C@H](C)CO)S2(=O)=O | 1.3 | 5.5 | -2.4 | i
C[C@H](CO)N1C[C@H](C)[C@H](CN(C)C(=O)NC2CCCCC2)OCc2ccccc2-c2ccccc2C1=O | 0.6 | 4.4 | -0.6 | i
CNC(=O)C[C@@H]1CC[C@H]2[C@@H](COC[C@@H](O)CN2Cc2ccc(C(F)(F)F)cc2)O1 | 2.7 | 2.4 | -0.1 | i
Cc1noc(C)c1S(=O)(=O)Nc1ccc2c(c1)C(=O)N([C@@H](C)CO)C[C@H](C)[C@@H](CN(C)S(=O)(=O)c1ccc(Cl)cc1)OCCCC[C@H](C)O2 | -0.8 | 6.1 | 1.4 | i
Cn1nc(C(C)(C)C)cc1C(=O)NCC1CCN(C(=O)C(=O)c2cc3ccccc3o2)CC1 | -10.7 | -11.9 | 0.3 | i
C[C@]12Cc3ccccc3C1CC1=N[C@@H](c3ccccn3)O[C@@]13C[C@@H]2C(=O)N3C1CCN(Cc2ccccc2)CC1 (stereo partly drawn) | 2.6 | -3.5 | 6.9 | .
O=C(N[C@@H](Cc1cccnc1)C(=O)N1CCC[C@H]1C(=O)NCc1ccccc1)c1ccc(Cl)c(Cl)c1 | -32.5 | -40.7 | 0.3 | i
COCC(=O)N1C[C@H]2[C@@H](c3ccccc31)[C@@H](CO)N2Cc1ccccc1Cl | -3.4 | -11.2 | 1.1 | i
CO[C@H]1CN(C)C(=O)c2cc(NC(=O)Nc3cccc(F)c3)ccc2OC[C@@H](C)N(C(C)=O)C[C@H]1C | -3.1 | -3.1 | 1.6 | i
O=C(C[C@@H]1C[C@@H]2c3cc(NC(=O)C4CCOCC4)ccc3O[C@@H]2[C@H](CO)O1)NCc1ccc(Oc2ccccc2)cc1 | -2.4 | 1.4 | -3.1 | i
CN(C)C(=O)c1ccc(-c2ccc3c(c2)[C@H]2[C@H](CCN2C(=O)C2CCOCC2)[C@H](CO)N3C)cc1 | 1.8 | 3.8 | -7.2 | i
C[C@@H]1CN([C@@H](C)CO)C(=O)Cc2cc(N(C)C)ccc2O[C@@H]1CN(C)C(=O)Nc1ccc(F)cc1 | 1.8 | 1.1 | 1.0 | i

2 consecutive records already listed, quoted:
SMILES | rRNA inh HTS | rRNA inh HTS OD600 | rRNA inh HTS RFP | FGF22 binding
CC(C)c1cn(CC[C@H]2CC[C@@H](NC(=O)c3cccc(F)c3)[C@@H](CO)O2)nn1 | -2.5 | -0.9 | 0.1 | i
CCC(=O)N1[C@H](C(=O)NCCCN(C)C)[C@@H](CO)[C@@H]2Cn3c(ccc(-c4ccccc4OC)c3=O)[C@@H]21 | 1.0 | 3.1 | -0.8 | i

The list goes on:
SMILES | rRNA inh HTS | rRNA inh HTS OD600 | rRNA inh HTS RFP | FGF22 binding
CCCNC(=O)N[C@H]1CC[C@H](CCn2cc(-c3cccc(F)c3)nn2)O[C@@H]1CO | 0.6 | 0.8 | -0.3 | i
Cc1noc(C)c1S(=O)(=O)N(C)C[C@@H]1OCCCC[C@@H](C)Oc2ccc(NS(=O)(=O)c3ccc(F)cc3)cc2C(=O)N([C@@H](C)CO)C[C@H]1C | 0.3 | 3.5 | 4.0 | i
O=C(Nc1ccc(F)cc1)N[C@@H]1C=C[C@@H](CC(=O)N2CCOCC2)O[C@@H]1CO | 2.8 | -1.4 | -0.4 | i
O=C(C[C@@H]1CC[C@H](NC(=O)C2CCC2)[C@H](CO)O1)NCc1ccccc1Cl | -1.1 | 1.4 | -2.8 | i
C[C@@H]1CCCCO[C@@H](CN(C)S(=O)(=O)c2cccs2)[C@H](C)CN([C@@H](C)CO)C(=O)c2cc(N(C)C)ccc2O1 | -5.3 | -8.0 | -3.3 | i
C[C@@H]1CCCCO[C@@H](CN(C)CC2CCCCC2)[C@H](C)CN([C@H](C)CO)C(=O)c2cc(NS(C)(=O)=O)ccc2O1 | 2.8 | 1.6 | -0.3 | i
O=C(C[C@H]1CC[C@H]2[C@@H](COC[C@@H](O)CN2C(=O)Nc2ccc(F)cc2)O1)NCC1CC1 | 2.7 | -0.6 | -0.1 | i
O=C(NCC1CCCCC1)[C@@H]1[C@@H](CO)[C@@H]2Cn3c(ccc(-c4ccncc4)c3=O)[C@H]1N2 | 0.6 | 3.9 | -1.3 | i
CO[C@@H]1CN(C)C(=O)c2cc(NC(=O)Nc3cc(F)ccc3F)ccc2OC[C@H](C)NC[C@H]1C | 0.9 | 5.8 | 0.1 | i
C[C@@H]1CN([C@H](C)CO)C(=O)c2cccc(NC(=O)C3CCOCC3)c2O[C@H]1CN(C)S(=O)(=O)c1cccs1 | 0.0 | 9.8 | -2.5 | i
CCCC(O)C#Cc1cnc2c(c1)C(=O)N([C@H](C)CO)C[C@H](C)[C@H](CN(C)Cc1ccncc1)O2 (stereo partly drawn) | 4.3 | 12.4 | -1.3 | i
CC(=O)N1CCCCN2[C@H](CO)[C@H](c3ccc(-c4ccccc4)cc3)[C@H]2C1 | 0.7 | -3.2 | 0.4 | i
Cc1ccc(S(=O)(=O)N(C)C[C@@H]2Oc3ccc(NC(=O)CCC(F)(F)F)cc3C(=O)N([C@H](C)CO)C[C@H]2C)cc1 | -2.5 | -4.4 | -1.9 | i
COc1ccc(S(=O)(=O)N(C)C[C@H]2Oc3ccc(NC(=O)Nc4cccc5ccccc45)cc3CC(=O)N([C@H](C)CO)C[C@@H]2C)cc1 | -2.8 | 1.6 | -1.2 | i
COc1ccc(CN(C)C[C@H]2OCCCC[C@H](C)Oc3ccc(NC(=O)c4ccncc4)cc3C(=O)N([C@@H](C)CO)C[C@@H]2C)cc1 | 2.8 | -3.0 | 0.7 | i
C[C@@H](NC(=O)C[C@H]1C=C[C@@H](NC(=O)C2CC2)[C@@H](CO)O1)c1ccccc1 | -1.3 | -4.6 | -1.2 | i
C[C@H]1CN([C@@H](C)CO)C(=O)Cc2cc(NC(=O)CCCN(C)C)ccc2O[C@H]1CN(C)S(=O)(=O)c1ccccc1 | 3.7 | 7.0 | -0.1 | i
COc1ccc(CN(C)C[C@H]2Oc3ccc(NC(=O)CCC(F)(F)F)cc3CC(=O)N([C@H](C)CO)C[C@@H]2C)cc1 | 2.0 | 4.4 | 0.8 | i
CC=Cc1ccc2n(c1=O)C[C@@H]1[C@@H](CO)[C@H](C(=O)N(C)C)[C@H]2N1CCc1ccccc1 (mixture of isomers) | 1.1 | 6.5 | -0.1 | i

High-throughput results from PubChem BioAssay.
